Six1-Eya2 blk: Six1/Eya2 interaction inhibition | Q15475+O00167 | AlphaScreen GST-Six1/His-Eya2 binding, biochemical; stronger effect = lower value; control for the full effect not named in the record | activity change, % (test concentration not listed) | hit rate 0.56% among 360,000 | AID 651725; in the data active = activity change below about -65%; inconclusive = about -30% to -65%; inactive = above about -30%; note: % is set by controls: 0 for no effect and ±100 for the full control effect; compound concentration not given in the record
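AlphaScreen luminescence read after one hour at 37 °C in darkness. Pin-transferred compounds met GST-Six1 and His-Eya2 protein (5X stock 250 nM/500 nM) plus glutathione donor and Ni-chelate acceptor beads (5X, 50 ug/mL).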
Sfp inh: inhibitors of Bacillus subtilis Sfp phosphopantetheinyl transferase. Q9F4F7. hit rate 3.5% among 310,000. AID 1490. Potency, µM, for the others: max response, negative = inhibition, hits mostly inhibitors. Biochemical Sfp PPTase activity, qHTS; active = well fitted inhibition curve with a large enough effect; inconclusive = small, poorly fitted or top-dose-only effect, or another doubt; inactive = no such curve, though single readings can be large or run the other way;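 note: the enzyme is Sfp with the accession as filed and its product quenches rhodamine fluorescence; potency is the fitted concentration of half-maximal effect; 0% = enzyme reaction without inhibitor and -100% = no enzyme wells; top concentration of the series not given in the record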
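Buffer: 50 mM Hepes-Na pH 7.6, 10 mM MgCl2, 0.01% Nonidet P-40, 0.01% BSA. Enzyme 15 nM, pre-exposed to compound 15 min; substrates then added and fluorescence change tracked over 30 min.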
PINK1 expr mod: PINK1 expression modulation; PINK1 immunofluorescence, high-content cytometry, 24 h; Potency, µM (highest dose often 76.6 µM), inactives show top-dose activation (PINK1 increase), usual class: activators; hit rate 0.2% among 410,000; AID 624263; active = well fitted activation curve with a large enough effect; inconclusive = small, poorly fitted or top-dose-only effect; inactive = flat fitted curve, though single readings scatter; cell line not stated here;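 note: potency is the fitted concentration of half-maximal effect; % of control where 0% means no effect; nearly all actives have a fitted effect of over 65% in size; a mitochondrial uncoupler was the plate control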
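Stable cell line, 250 cells/well, 12 h attachment; compounds pinned at 5 concentrations, 24 h; CCCP control. Fixed with nuclear dye, primary antibodies 12 h at 10 degrees C, secondary plus cell stain; laser-scanning cytometer read.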
D2 agonist: activates the human D2 dopamine receptor; P14416; DiscoveRx PathHunter D2 beta-arrestin, luminescence, 90 min; 100% = 57 uM dopamine signal; activation, % (concentration not given with the values); hit rate 0.084% among 360,000; AID 624465; in the data active = activation above about 40%; inconclusive = about 15% to 40%; inactive = below about 15%; note: compound concentration not given in the record; the text of the record calls up to 30% inactive
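DiscoveRx PathHunter D2 beta-arrestin cells (2,100/well) attached overnight, then compound-stimulated 90 min at 37 C in HBSS/10 mM HEPES/0.1% Tween-20 buffer; beta-galactosidase complementation read by luminescence after 1 h at ambient temperature. Dopamine 57 uM final (EC100) as control.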
CtBP-E1A blk: inhibitors of CtBP/E1A interaction. activity change, % (test concentration not listed). hit rate 0.49% among 340,000. AlphaScreen GST-E1A/His-CtBP binding, 1536-well; stronger effect = lower value; control for the full effect not named in the record; in the data active means activity change below about -65%; inconclusive means about -30% to -65%; inactive means above about -30%; note: % is set by controls: 0 for no effect and ±100 for the full control effect; compound concentration not given in the record
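GST-E1A and His-tagged CtBP (125 nM each as 5X stock) were preincubated with pin-transferred compound for 2 h at 37 °C in the dark, then glutathione donor and nickel acceptor beads were added for 1 h before AlphaScreen reading.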
D2 PAM: potentiates the human D2 dopamine receptor allosterically; DiscoveRx D2 beta-arrestin cells, luminescence, 90 min; 100% = 57 uM dopamine signal; potentiation, % (concentration not given with the values); hit rate 0.23% among 360,000; active = potentiation of 50% or more; inconclusive = 30% to 50%; inactive = 30% or less;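 note: compound concentration not given in the record; tested on top of an EC20 dose of dopamine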
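D2 cells co-treated with compound plus 50 nM dopamine (EC20) for 90 min at 37 deg C to detect potentiation. Beta-arrestin recruitment was read as enzyme-fragment luminescence after 1 h at ambient temperature. Full response was set by 57 uM dopamine.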
TRPV1 PAM: potentiators of human vanilloid receptor 1 (TRPV1). Q8NER1. TRPV1-expressing cells, Fluo-8 calcium influx, capsaicin EC20 potentiation; host cell line not named in the record; control for the full effect not named in the record. potentiation, % at 8.33 µM. hit rate 0.02% among 320,000. AID 540277; active means potentiation above 80%; inconclusive means 30% to 80%; inactive means below 30%; note: 0% is about no effect
Target sequence (Q8NER1 whole entry, looked up): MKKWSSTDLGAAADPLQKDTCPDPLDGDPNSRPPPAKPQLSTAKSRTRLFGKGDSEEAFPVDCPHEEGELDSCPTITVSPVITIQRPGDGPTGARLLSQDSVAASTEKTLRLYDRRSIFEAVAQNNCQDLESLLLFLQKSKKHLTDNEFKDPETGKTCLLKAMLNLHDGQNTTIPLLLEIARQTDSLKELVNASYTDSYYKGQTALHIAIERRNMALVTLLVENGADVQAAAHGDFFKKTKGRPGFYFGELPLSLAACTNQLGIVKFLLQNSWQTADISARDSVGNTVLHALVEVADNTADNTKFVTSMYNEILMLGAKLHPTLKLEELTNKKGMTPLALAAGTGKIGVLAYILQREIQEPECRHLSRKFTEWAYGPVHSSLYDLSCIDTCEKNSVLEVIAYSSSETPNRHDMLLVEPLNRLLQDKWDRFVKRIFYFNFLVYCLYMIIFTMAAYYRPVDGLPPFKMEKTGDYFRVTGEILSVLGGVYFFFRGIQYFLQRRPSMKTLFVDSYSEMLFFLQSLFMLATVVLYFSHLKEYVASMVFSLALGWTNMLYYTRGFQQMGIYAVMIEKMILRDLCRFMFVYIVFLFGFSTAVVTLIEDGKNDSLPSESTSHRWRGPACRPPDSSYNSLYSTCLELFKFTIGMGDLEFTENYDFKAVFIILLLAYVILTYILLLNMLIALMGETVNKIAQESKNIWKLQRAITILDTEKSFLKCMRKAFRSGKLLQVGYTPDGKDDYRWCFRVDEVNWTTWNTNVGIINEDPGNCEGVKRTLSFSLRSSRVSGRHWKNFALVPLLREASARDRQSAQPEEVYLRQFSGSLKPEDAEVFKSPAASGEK
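Cells expressing TRPV1 were dye-loaded with Fluo-8 and read kinetically: 10 s baseline, 3 min after compound (agonist portion), then 2 min after EC20 capsaicin (allosteric enhancer portion). Calcium-bound dye fluorescence at 480/520 nm.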
* hit, by the source's call; ? = inconclusive; · = no result given; & = joins results of further samples; ! = not confirmed by another sample; [ ] = another dose, or the depositor's remark.

compound	TRPV1 PAM	D2 PAM	Sfp inh	PINK1 expr mod	D2 agonist	Six1-Eya2 blk	CtBP-E1A blk
Cc1nc(C(=O)NCCCO)cc2c1[nH]c1ccccc12	25.4	-4.5	19.9%	0.4%	-0.3	-8.2	·
O=C(COc1ccc(Br)cc1)NCc1cn2ccccc2n1	-6.5	0.5	2.8%	1.6%	-0.9	0.5	-0.5
Cc1ccc(OCC(=O)NCCCNC(=O)COc2ccc(C)cc2)cc1	3.9	-12.6	0.2%	1.5%	-4.2	1.0	-2.1
O=C(CO/N=C/c1ccc2c(c1)OCO2)Nc1cccc(Br)c1	-4.8	-3.8	4.0%	9.2%	-4.3	3.8	6.7
CC(C)(Oc1ccc(Cl)cc1)C(=O)Nc1ncccn1	0.7	11.7	-0.1%	-1.4%	1.0	-0.5	-4.1
Cn1c(C(=O)N2CCCC(C(=O)NCCCc3ccccc3)C2)cc2sccc21 (stereo unspecified)	-19.3	-13.5	-4.5%	3.8%[38.3 µM]	-3.0	-5.1	-19.7
COC(=O)c1ccccc1NC(=O)N1CCN(c2ccccc2)CC1	-3.2	-5.7	13.3%	0.0%	-0.5	-6.8	-21.5
CC(=O)c1cccc(N=C2C(=O)Nc3ccccc32)c1	0.3	-44.3	-1.1%	-0.8%	-9.4	-0.1	-12.4
CC(CCN1C(N(C)C)=NC[C@@H]1C)c1ccccc1 (stereo partly specified)	-4.4	-5.1	·	0.6%	-1.6	7.5	7.6
O=C(Nc1nc2cc3c(cc2s1)OCO3)C1=COCCO1	-7.0	-1.3	-0.9%	10.6%	-3.4	-3.1	-15.0
N#C/C(=C\C1=C(N2CCOCC2)C(=C\c2ccccc2)/CC1)C(=O)Nc1ccccc1F	5.1	-1.9	-7.0%	0.7%	0.3	?	-17.0
O=C(Nc1ccc2c(c1)OCO2)c1ccc(N2CCCC2)c([N+](=O)[O-])c1	10.2	-19.3	-3.0%	-0.9%	-5.2	?	-20.4
O=C(OCCn1c(=S)sc2ccccc21)c1ccccc1	·	-13.7	·	-2.9%	-1.7	20.5	-1.7
O=C(Cn1c(=O)oc2ccccc21)Nc1ccc(Cl)cc1Cl	-0.7	-0.7	-10.9%	?	-1.4	1.4	6.2
COc1ccccc1C(=O)NC(=O)CSc1nc(C)cs1	-11.2	-22.4	·	-1.4%	-2.6	2.9	-23.5
CC1CCC2(CC1)NC(=O)N(CC(=O)NCCc1ccccc1)C2=O (stereo unspecified)	·	-3.6	·	-1.7%	-1.6	-8.3	-7.2
Cc1ccc([C@H]2C[C@H](n3cc(-c4ccc(F)cc4)nn3)[C@@H](O)CN2C(=O)C2CCCCC2)cc1	·	-5.6	·	0.0%	1.8	8.6	0.0
Cc1cccc(C)c1NC(=O)CS(=O)CC(=O)NC1CCCc2ccccc21 (stereo unspecified)	27.5	-3.2	1.9%	-2.6%	0.4	-0.7	4.4
C=CCn1c(C(c2ccccc2)c2ccccc2)n[nH]c1=S	-2.2	-7.0	-19.3%	-1.3%	-3.2	-16.1	-1.4
CC(=O)c1ccc(NC(=O)CS(=O)(=O)c2cn(CC(=O)N3CCOCC3)c3ccccc23)cc1	5.9	-1.4	1.8%	0.4%	-4.3	0.9	2.8
COc1ccc(CCNC(=O)CCn2c(=O)oc3ccccc32)cc1OC	5.8	0.5	17.6%	-0.5%	-3.5	8.6	-5.9
CC(C)(C)c1csc(NC(=O)Cc2cccs2)n1	0.6	-2.8	4.9%	5.9%	-3.6	-1.3	7.9
COc1ccccc1C(=O)Nc1ccc(C(=O)O)cc1	22.0	-8.9	17.2%	0.9%	1.4	5.1	-2.0
CN(Cc1ccccc1)C(=O)C1CCCN(c2ncnc3c2nc2n3CCCCC2)C1 (stereo unspecified)	-10.8	-3.0	-5.6%	-0.1%	-3.0	1.4	-7.9
COc1ccccc1N1CCN(C(=O)C2CCN(S(=O)(=O)c3ccc4c(c3)CC(C)N4C(=O)C3CC3)CC2)CC1 (stereo unspecified)	0.8	12.6	5.6%	2.3%	1.2	-5.0	-9.7

Another view of some results above.
Under each structure: TRPV1 PAM | D2 PAM | Sfp inh | PINK1 expr mod | D2 agonist | Six1-Eya2 blk | CtBP-E1A blk
- COc1ccc(CCNC(=O)CCn2c(=O)oc3ccccc32)cc1OC
 : 5.8 | 0.5 | 17.6% | -0.5% | -3.5 | 8.6 | -5.9
- CC(C)(C)c1csc(NC(=O)Cc2cccs2)n1
 : 0.6 | -2.8 | 4.9% | 5.9% | -3.6 | -1.3 | 7.9
- COc1ccccc1C(=O)Nc1ccc(C(=O)O)cc1
 : 22.0 | -8.9 | 17.2% | 0.9% | 1.4 | 5.1 | -2.0
- CN(Cc1ccccc1)C(=O)C1CCCN(c2ncnc3c2nc2n3CCCCC2)C1 (stereo unspecified)
 : -10.8 | -3.0 | -5.6% | -0.1% | -3.0 | 1.4 | -7.9
- COc1ccccc1N1CCN(C(=O)C2CCN(S(=O)(=O)c3ccc4c(c3)CC(C)N4C(=O)C3CC3)CC2)CC1 (stereo unspecified)
 : 0.8 | 12.6 | 5.6% | 2.3% | 1.2 | -5.0 | -9.7

Remaining list, next part:
compound	TRPV1 PAM	D2 PAM	Sfp inh	PINK1 expr mod	D2 agonist	Six1-Eya2 blk	CtBP-E1A blk
Cc1ccc(Cl)cc1NC1=C/C(=N\S(=O)(=O)c2cccs2)c2ccccc2C1=O	19.5	-19.3&12.9	-4.2%	-2.0%	2.2&0.5	-73.9*!	-77.8*
C/C(CC(C)C)=N/Nc1ccc([N+](=O)[O-])cc1[N+](=O)[O-]	23.8	-5.9	-15.8%	4.2%	-0.9	?	·
COc1ccc(NC(=O)c2cc(S(=O)(=O)N3CCc4ccccc43)cn2C)cc1OC	20.0	-7.7	1.1%	9.3%	-3.4	3.3	-9.9
OCCCNc1nc(-c2ccccc2)nc2c1oc1ccccc12	-8.9	-1.3	3.3%	0.0%	-5.7	-20.0	-24.5
CCOc1cc(/C=N\Nc2nc(Nc3ccccc3)nc(N3CCOCC3)n2)ccc1OC(=O)c1ccco1	9.1	64.7*	17.7%	-1.4%	?	-10.7	-16.5
CCn1ncc(CN2CCCC(C(=O)c3cccc(OC(C)C)c3)C2)c1C (stereo unspecified)	-5.0	-17.7	3.2%	1.3%	-1.5	5.9	·
CCc1ccccc1NC(=O)CN(C)C(=O)c1cccc(S(=O)(=O)N2CCCCCC2)c1	-6.0	-0.3	·	0.1%	-0.9	8.1	6.9
O=C(Nc1ccc2c(c1)OCO2)c1c(Cl)nc2sccn12	-15.0	-7.4	9.3%	1.6%	-4.7	-4.4	-3.5
O=S(Cc1ccccc1)CC(O)(c1ccccc1)c1ccccc1 (stereo unspecified)	-9.3	14.9	21.6%	0.0%	0.1	-0.4	4.6
CCCCNC(=O)c1onc(CSc2cccc(Cl)c2)c1C(=O)O	-8.1	-4.5	13.3%	1.2%	0.1	2.4	8.8
COc1ccccc1C=NNC(=O)NN=Cc1ccccc1OC	·	-10.6	·	9.6%	-1.7	-13.0	-6.2
Cc1ccccc1OCC(=O)Nc1sc2c(c1C#N)CC(C)(C)NC2(C)C	1.2	-6.1	-4.1%	1.7%	0.4	-3.6	-3.7
O=C(CN1CCN(Cc2ccccc2)CC1)Nc1ccccc1	-1.7	-27.5	20.0%	-1.0%	-0.5	-11.2	-0.5
Cc1ccnc2c1ccc1cccnc12	3.5	-9.4	·	0.1%	2.9	-80.8*	-92.4*
COc1ccc([C@H]2CC(=O)C[C@@H](CCn3nnc4ccccc43)O2)cc1	·	·	·	-0.1%	·	-2.5	8.8
O=C(CCNC(=O)c1ccccc1Cl)NCCc1ccc(Cl)cc1	?	2.7	2.8%	-1.3%	0.9	6.5	2.6
C=CCNC(=O)CN1C(=O)C2C3c4ccccc4C(c4ccccc43)C2C1=O (stereo unspecified)	11.6	-5.1	12.3%	-0.6%	-5.1	-2.3	11.8
CCCOc1ccc(-c2nc(C#N)c(NCCCn3ccnc3)o2)cc1	3.1	8.1	-3.6%	10.2%[38.3 µM]	-3.0	-15.8	-20.9
C(=N\n1cnnc1)/c1ccc2ncccc2c1	5.1	-4.8	13.8%	1.2%	-1.8	2.5	6.0
CC(=O)c1c(C)[nH]c(C(=O)COc2ccc3ccc(=O)oc3c2)c1C	0.1	1.6	·	-3.0%	1.8	-2.2	-24.4
O=C(NCc1ccccc1)N1CCNCC1	6.6	-4.5	8.9%	-0.1%	-1.6	6.5	7.8
O=C(Nc1ccccc1)c1ccc2snnc2c1	-4.7	-2.1	15.5%	1.1%	-4.7	-11.7	-2.8
O=C(CCn1cccn1)Nc1ccc2c(c1)OCO2	-10.5	4.6	11.8%	0.6%	-1.0	-5.3	-11.2
COCCOC1CCN(C(=O)C2CCC(=O)N(Cc3cccc(F)c3)C2)CC1 (stereo unspecified)	-3.9	-7.3	13.5%	-0.9%	2.6	-2.7	-10.0
CCCCC(=O)Nc1ccc(C(=O)NCc2ccncc2)cc1	-38.5	-10.7	1.1%	1.1%	-0.2	2.8	-8.5

One compound at a time (already shown). Values in the order: TRPV1 PAM, D2 PAM, Sfp inh, PINK1 expr mod, D2 agonist, Six1-Eya2 blk, CtBP-E1A blk
CC(=O)c1c(C)[nH]c(C(=O)COc2ccc3ccc(=O)oc3c2)c1C as listed: 0.1, 1.6, ·, -3.0%, 1.8, -2.2, -24.4
C=CCNC(=O)CN1C(=O)C2C3c4ccccc4C(c4ccccc43)C2C1=O (stereo unspecified) as listed: 11.6, -5.1, 12.3%, -0.6%, -5.1, -2.3, 11.8
C/C(CC(C)C)=N/Nc1ccc([N+](=O)[O-])cc1[N+](=O)[O-] as listed: 23.8, -5.9, -15.8%, 4.2%, -0.9, ?, ·

More structures follow:
compound	TRPV1 PAM	D2 PAM	Sfp inh	PINK1 expr mod	D2 agonist	Six1-Eya2 blk	CtBP-E1A blk
CCC(=O)Nc1nc(C)cc(SCC(=O)OC)n1	-11.9	-26.4	20.0%	1.0%	-2.5	-0.4	1.4
CC1(C)CC(=O)c2sc(NS(=O)(=O)c3cc(Cl)ccc3Cl)nc2C1	16.1	-5.2	-23.9%	-0.3%	-1.2	1.1	-1.8
O=C(OCC(=O)C12CC3CC(CC(C3)C1)C2)c1cccnc1	-23.5	-4.7	4.1%	1.9%	4.6	13.6	·
C=CCc1ccccc1OCC(O)CN1CCN(CCN2C(=O)c3cccc4cccc(c34)C2=O)CC1 (stereo unspecified)	4.7	-29.9	5.62µM*	-3.8%	-3.0	-13.9	-20.4
